A647 fluor: qHTS Assay for Spectroscopic Profiling in A647 Spectral Region. 59,000 tested, under 10 active. max dye-equivalent concentration, M. AID 592, 2007. Compound fluorescence, A647 channel (570/671 nm), Tris buffer; active means above 1 µM dye equivalent; inconclusive means 0.1 to 1 µM; inactive means 0.1 µM or less;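 further: values scaled relative to a standard on each plate; highest value over a series up to 38 µM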
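Fluorescence read (570 nm ex, 671 nm em) after 15 min RT incubation of compounds in 100 mM Tris buffer, pH 8.0; values expressed as dye-equivalent concentration against a six-point A647 standard series on each plate.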
Resorufin autofl: qHTS Assay for Spectroscopic Profiling in Resorufin Spectral Region. Compound fluorescence, resorufin region 547/598 nm, buffer; hits give high values. max dye-equivalent concentration, M. 59,000 tested, 0.04% active; active = above 10 nM dye equivalent; inconclusive = 1 to 10 nM; inactive = 1 nM or less; a few of its hits are not listed in these tables; further: highest value over a series up to 38 µM
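Tris 100 mM pH 8.0; compound added, 15 min RT; CCD imager read, ex 547 nm/em 598 nm; signal normalized to resorufin standard curve (six concentrations per plate) as dye-equivalent concentration.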
TSHR agonist: qHTS Assay for Agonists of the Thyroid Stimulating Hormone Receptor; HEK293-CNG-TSHR cells (CNG channel as cAMP sensor), membrane potential dye, cAMP; Potency, µM (top dose mostly 57.1 µM), inactives show top-dose activation, usual class: activators; AID 926, 2007; 73,000 tested, 0.48% active; Thyrotropin receptor (Homo sapiens), P16473; active = well fitted activation curve of enough size with the parental cells flat; inconclusive = any curve in the parental cells; inactive = parental cells flat and receptor cells flat or falling; further: potency means the concentration at half of the fitted maximal effect; % of control where 0% means no effect; weak receptor curves with flat parental cells got no call and are not listed
Target sequence (P16473 whole entry, looked up): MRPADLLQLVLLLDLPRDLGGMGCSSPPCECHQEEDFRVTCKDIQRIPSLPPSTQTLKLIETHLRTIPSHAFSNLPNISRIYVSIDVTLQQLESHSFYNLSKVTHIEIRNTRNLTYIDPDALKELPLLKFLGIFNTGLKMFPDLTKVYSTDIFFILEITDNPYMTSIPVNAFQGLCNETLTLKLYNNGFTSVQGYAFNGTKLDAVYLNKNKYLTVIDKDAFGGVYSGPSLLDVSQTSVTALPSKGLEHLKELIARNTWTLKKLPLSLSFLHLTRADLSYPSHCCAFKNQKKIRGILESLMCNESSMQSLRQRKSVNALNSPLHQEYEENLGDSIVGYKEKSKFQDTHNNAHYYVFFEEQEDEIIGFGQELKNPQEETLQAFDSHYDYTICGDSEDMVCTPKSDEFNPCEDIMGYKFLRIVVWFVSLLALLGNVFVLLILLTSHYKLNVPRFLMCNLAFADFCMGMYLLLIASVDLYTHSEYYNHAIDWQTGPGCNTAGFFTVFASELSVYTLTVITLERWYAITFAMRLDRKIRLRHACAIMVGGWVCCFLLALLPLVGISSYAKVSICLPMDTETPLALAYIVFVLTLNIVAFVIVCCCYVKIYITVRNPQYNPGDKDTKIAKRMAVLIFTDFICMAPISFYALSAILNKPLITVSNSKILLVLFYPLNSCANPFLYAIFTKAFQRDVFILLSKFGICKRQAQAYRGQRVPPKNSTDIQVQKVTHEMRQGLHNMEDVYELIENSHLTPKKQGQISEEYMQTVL
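cAMP rise detected as CNG-channel membrane depolarization by fluorescent dye (emission 590 nm), 30 min after compound, following 60 min dye loading containing 100 uM RO 20-1724 at room temperature. Cells: TSHR/CNG HEK 293, with parental CNG HEK 293 as control.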
AID923: qHTS Assay for Allosteric/Competitive Inhibitors of Caspase-1: Spectroscopic Profiling in AFC Spectral Region | 75,000 tested, 1.1% active | compound fluorescence, AFC spectral region (405/520 nm); almost no hit is shown here | AID 923, 2007 | Potency, µM (top dose mostly 57.5 µM), for the others: at the top dose fluorescence increase, most hits filed as activators; active means well fitted activation curve with a large enough effect; inconclusive means small, poorly fitted or top-dose-only effect;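 further: potency means the concentration at half of the fitted maximal effect; 0% is about no effect; scaled to a free AFC standard on each plate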
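Titrations up to 57 uM read every 20 sec for 3 min (405/520 nm) with 50 nM caspase 1 and 5 uM Ac-WEHD-AFC, pH 7.5 HEPES buffer. Fluorescence-vs-time intercept gave baseline, scaled against on-plate AFC standard.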
A488 autofl: qHTS Assay for Spectroscopic Profiling in A488 Spectral Region; compound autofluorescence, A488 spectral region, dye equivalency; hits give high values; max dye equivalency, M; 59,000 tested, 0.1% active; AID 591, 2007; active = above 10 nM dye equivalent; inconclusive = 1 to 10 nM; inactive = 1 nM or less; about half of its hits are not listed in these tables;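 further: highest value over a series up to 38 µM; compound alone in buffer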
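Compound autofluorescence was read in 100 mM Tris pH 8.0 after 15 min at room temperature, ex 480 nm/em 540 nm. Intensities were converted to A488 dye-equivalent concentration using an on-plate six-point A488 standard curve.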
* hit, by the source's call; i = inactive; u = inconclusive; x = no result given; & = joins results of further samples; [ ] = remark or other dose. Only part of the results is shown (hit frequency here may not be typical).

The line under a structure holds: A647 fluor | Resorufin autofl | TSHR agonist | AID923 | A488 autofl
O=C(c1cnn(-c2nc3ccccc3s2)c1)c1ccccc1O
 : 5.5e-09 | i | 7% | 0.1% | i
COc1cccc(Nc2ncc3nc(C)c(=O)n(C4CC4)c3n2)c1
 : 9.1e-09 | i | 5% | 7.8% | i
COC(=O)Nc1ccc(S(=O)(=O)N2CCN(C)CC2)cc1
 : x | x | u | -0.1% | x
CCCSc1nc(N)c2c3c(sc2n1)CN(C)CC3
 : 2.7e-09 | i | 12% | -1.1% | i
Cc1cccc2c(=O)c(C(=O)N3CCCCCC3)c[nH]c12
 : 1e-09 | i | x | -1.2% | i
Cc1ccc(-c2ccc(CCC(=O)O)n2CC(=O)O)cc1
 : x | x | 6% | 5.7% | x
CCCS(=O)(=O)N1CCCC(C(=O)NCCCN2CCN(c3ccccc3F)CC2)C1 (centres undefined)
 : 1e-09 | i | 0% | 0.1% | i
COC(=O)C1CCN(C(c2cc(OC)c(OC)c(OC)c2)c2sc3nc(C)nn3c2O)CC1 (centres undefined)
 : x | x | -10% | 4.2% | x
O=C(Nc1ccccc1)N1CC[C@@]2(CCCN(C(=O)c3cc(C(F)(F)F)cc(C(F)(F)F)c3)C2)C1
 : 1.9e-08 | i | 5% | -1.0% | i
C=CCn1c(C)cc(C(=O)CSc2nc3ccccc3c(=O)[nH]2)c1C
 : 2.4e-08 | i | u | 1.4% | i
Cc1c(NC(=O)c2ccc3c(c2)OCO3)cccc1-c1nc2ncccc2o1
 : x | x | 10% | 1.6% | x
CCOC(=O)c1ccc(NC(=O)c2cc(S(=O)(=O)N3CCOCC3)ccc2O)cc1
 : 1.5e-08 | i | 4% | 1.1% | i
CC(Sc1nncn1C)C(=O)Nc1ccccc1-c1ccccc1 (centres undefined)
 : 4.2e-08 | i | 13% | 0.0% | i
C=C1CC(C)OC(c2ccccc2OCC(O)CN2CCCCC2)C1 (centres undefined)
 : 1e-09 | i | 19% | -0.1% | i
COCCN1C(=O)C(O)=C(C(C)=O)C1c1ccc(OC)c(OC)c1 (centres undefined)
 : 7.6e-09 | i | 2% | 1.6% | i

Continued, starting with the last three of the part before.
The line under a structure holds: A647 fluor | Resorufin autofl | TSHR agonist | AID923 | A488 autofl
CC(Sc1nncn1C)C(=O)Nc1ccccc1-c1ccccc1 (centres undefined)
 : 4.2e-08 | i | 13% | 0.0% | i
C=C1CC(C)OC(c2ccccc2OCC(O)CN2CCCCC2)C1 (centres undefined)
 : 1e-09 | i | 19% | -0.1% | i
COCCN1C(=O)C(O)=C(C(C)=O)C1c1ccc(OC)c(OC)c1 (centres undefined)
 : 7.6e-09 | i | 2% | 1.6% | i
Cc1cc(C)cc(OCC(=O)Nc2ccc(N3CCCC3)cc2)c1
 : x | x | -5% | 0.4% | x
O=C(c1ccncc1)N1CCC2(CC1)CN(c1ncccn1)C2
 : 3.4e-09 | i | -4% | 2.6% | i
O=C(CN(Cc1ccco1)C(=O)c1cc(=O)[nH]c2ccccc12)Nc1ccccc1C(F)(F)F
 : 8.7e-09 | i | 18% | -0.5% | i
CC1Cc2ccccc2N1CC(=O)NC(=O)NCc1ccco1 (centres undefined)
 : 1.6e-08 | i | -6% | -0.1% | i
O=C(NCc1ccco1)C(c1ccccc1F)N(CC1CCCO1)C(=O)Cn1nnc2ccccc21 (centres undefined)
 : 2.1e-08 | i | u | -0.6% | i
CS(=O)(=O)Nc1cccc(-c2ccc3ncnc(NC4CC4)c3c2)c1
 : 1.3e-09 | i | 2% | 0.9% | i
CCOc1ccc(OCCCCN(C)C)cc1
 : x | x | 2% | 0.8% | x
CN(C)c1ccc(-c2nccc(NCc3cccs3)n2)cc1
 : 2.3e-08 | i | 25% | 1.3% | i
Cc1nn(-c2ccc(F)cc2)c2sc(C(=O)OC3CCOC3=O)cc12 (centres undefined)
 : 1e-09 | i | u | 2.2% | i
Cc1ccc2cc(CN(CC3CCCO3)C(=O)c3ccco3)c(=O)[nH]c2c1C (centres undefined)
 : 1e-09 | i | -10% | 0.6% | i
CCn1c(SCC(=O)Nc2nc3ccccc3s2)nc2c(c1=O)SC(C)C2 (centres undefined)
 : 2.3e-08 | i | -8% | -1.9% | i
COC(=O)c1cc(C(=O)OC)cc(N2C(=O)CC(N3CCN(c4ccccc4)CC3)C2=O)c1 (centres undefined)
 : 1.4e-08 | i | 17% | 0.2% | i
COc1ccc(C(=O)COC(=O)c2ccco2)cc1
 : 1e-09 | i | 0% | 1.0% | i
COc1ccc(S(=O)(=O)NCC(c2cccnc2)N2CCN(c3ccccc3)CC2)cc1C (centres undefined)
 : 6.1e-09 | i | 13% | 1.2% | i
O=C(NC1(C(F)(F)F)N=C2SCCN2C1=O)C1CCCCC1 (centres undefined)
 : 1.8e-08 | i | -6% | -1.8% | i
CCOc1ccc(NC2c3ccccc3C(=O)N2c2ccc(Cl)cn2)cc1 (centres undefined)
 : x | x | 2% | 1.2% | x
CCC(=O)Nc1cnc(NC(=O)c2cccc(F)c2)cc1C
 : 2.2e-08 | i | -1% | 0.3% | i
CCOc1cccc(-c2nn3c(-c4cc(C)[nH]n4)nnc3s2)c1
 : 4.6e-09 | i | 14% | 1.3% | i
COc1ccccc1NC(=O)Cn1nnc(-c2ccccc2NC(=O)c2ccco2)n1
 : 1e-09 | i | 7% | -1.5% | i
Cc1c(NC(=O)c2ccc(COc3ccc4ccccc4c3)o2)c(=O)n(-c2ccccc2)n1C
 : 9.2e-09 | i | x | -0.8% | i
Cc1[nH]nc2c1C1(CCOC1C)C(C#N)=C(N)O2 (centres undefined)
 : 1e-09 | i | -1% | 0.7% | i
O=C(O)CCC(=O)N1CCN(c2ccccn2)CC1
 : 1e-09 | i | 0% | 1.9% | i
CC(C)c1nnc(NC(=O)CCC(=O)NCc2ccc3c(c2)OCO3)s1
 : 2.2e-09 | i | 3% | 0.8% | u
Cc1ccc(S(=O)(=O)N(CCO)c2cc3c(s2)CCCC3)cc1
 : 1.5e-08 | i | u | 0.6% | i
O=C(NC1=NCCS1)c1cccs1
 : 1e-09 | i | -13% | 0.9% | i
CC(=O)C1=C(O)CCC1=N
 : 5.1e-08 | i | 4% | 0.8% | i
O=C(CN1CCC(NC(=O)c2ccccc2)CC1)NCc1ccccc1F
 : 1.5e-08 | i | -1% | 0.5% | i
COC(=O)Cn1c2ccc(F)cc2c2nc(C)sc21
 : 3.8e-08 | i | 4% | 4.3% | i
CCn1c(SCc2nc3cc(OC)c(OC)cc3c(=O)[nH]2)nnc1-c1ccncc1
 : 4.9e-09 | i | 4% | -0.3% | i
CC(C)C(=O)Cc1ccc2ccccc2n1
 : 1e-09 | i | 1%[11.4 µM] | 1.8%[11.5 µM] | i
C=CCn1c(SCc2cc(C(=O)OC)c(C)o2)nnc1-c1ccncc1
 : 1e-09 | i | 13% | 1.7% | i
COCCNC(=O)CSc1ccc(C)cc1
 : x | x | 1%[11.4 µM] | -2.6% | x
CCCNC(=O)Cc1ccsc1
 : 3e-09 | i | 0% | -3.0% | i
COC(=O)[C@H](C)NC(=O)[C@@H](C)CO
 : x | x | -1%[11.4 µM] | 1.6%[11.5 µM] | x
Cn1c(=O)c2c(nc(CN3CCN(c4ccccc4)CC3)n2CCCc2ccccc2)n(C)c1=O
 : 3.9e-08 | i | u | -1.4% | i
CCOc1cc(C(=O)Nc2ccc(S(=O)(=O)Nc3cc(C)on3)cc2)cc(OCC)c1OCC
 : 8.1e-09 | i | -3% | 0.3% | i
COCCNC(=O)COc1ccc(OCCNC[C@@H](O)COc2ccccc2)cc1
 : x | x | 6% | 1.6% | x
Cc1ccc(O)c(N=CC2=C(O)c3ccccc3C2=O)c1
 : x | x | -20% | -0.8% | x
CCn1c(=O)cc(OCC(=O)NCCCN2CCN(c3cccc(Cl)c3)CC2)c2ccccc21
 : 1.3e-09 | i | 21%[11.4 µM] | -0.1% | i
CCOC(=O)C1CCCN(CC(O)COc2ccc(OC)cc2C(C)(C)C)C1 (centres undefined)
 : 4.9e-08 | i | 8% | -0.4% | i
CC(C)n1c2ccccc2c2nnc(SCC(=O)OCN3C(=O)c4ccccc4C3=O)nc21
 : x | x | 4%[11.4 µM] | 2.3% | x
NC(=O)C1CCN(C(=O)c2ccc(CS(=O)(=O)c3c(Cl)cccc3Cl)o2)CC1
 : x | x | 0% | -2.8% | x
COC(=O)C1(C(F)(F)F)N=C(N(C)C)OC(N(C)C)=N1
 : 2.2e-08 | i | 3% | 1.2% | i
Cc1noc(C)c1C(=O)N1CCC2(CCCN(Cc3nccs3)C2)CC1
 : 1e-09 | i | 2% | 0.4% | i
O=C(CSc1ccc2nnc(-c3ccccn3)n2n1)N1CCOCC1
 : x | x | -7% | 4.6% | x
O=C1OCCC1Sc1ncnc2sccc12 (centres undefined)
 : 1e-09 | i | -2% | -0.2% | i
CN(CC(=O)N1CCCCC1)S(=O)(=O)c1cccc2cccnc12
 : x | x | 1% | 2.2% | x
O=C(CN1CCN(S(=O)(=O)c2ccccc2)CC1)Nc1ccc2c(c1)OCO2
 : 1e-09 | i | 1% | -0.5% | i
Cn1c(=O)c2c(nc(Cc3ccccc3)n2CC(=O)O)n(C)c1=O
 : 2.3e-09 | i | -3%[11.4 µM] | -2.9%[11.5 µM] | i
CCOC(=O)OCC1OC(C#Cc2ccc(C)cc2C)C=CC1OC(=O)OCC (centres undefined)
 : x | x | -1%[11.4 µM] | 0.5%[11.5 µM] | x
Cc1cccc(-n2c(N)cc(=O)nc2SCC(=O)Nc2ccccc2)c1
 : 1e-09 | i | 3% | 0.3% | i
Cc1c(N2C(=O)SC(CC(=O)O)C2=O)c(=O)n(-c2ccccc2)n1C (centres undefined)
 : 6.1e-09 | i | x | x | i
Cc1ccc(C)n1C(Cc1ccccc1)C(=O)O (centres undefined)
 : 1.7e-08 | i | 14% | 9.6% | i
COc1cc(/C=C(\C#N)C(=O)c2ccc(O)c(O)c2)cc(I)c1O
 : 1e-09 | i | u | -1.0% | i
Cc1ccc(-c2cc(C(=O)NCc3ccccn3)no2)cc1
 : 4.2e-08 | i | 0% | -1.3% | i
CC(=O)NC(Cc1ccccc1)C(=O)N1CCN(C(=O)c2ccco2)CC1 (centres undefined)
 : 1e-09 | i | -2% | 0.3% | i
CC1=C(C(=O)Nc2ccccc2)C(c2ccc(N(C)C)cc2)NC(=O)N1 (centres undefined)
 : 1e-09 | i | u | 4.1% | i
CCOC(=O)C(C)(C)C(=O)C(C)(C)C(O)c1ccccn1 (centres undefined)
 : 3.3e-08 | i | 3% | 2.0% | i
Clc1ccc(-n2ncc3c(NCc4ccccn4)ncnc32)cc1
 : 1e-09 | i | x | x | i
CCN(CC)S(=O)(=O)c1ccc2oc(SCC3CN=C(c4ccc(OC)cc4)S3)nc2c1 (centres undefined)
 : 1.9e-09 | i | u | 1.3% | i

Remaining list, next part.
The line under a structure holds: A647 fluor | Resorufin autofl | TSHR agonist | AID923 | A488 autofl
CN(C)c1ccc(/C=[N+](\[O-])C2SC(=S)N(C)C2(C)C)cc1 (centres undefined)
 : 6.9e-09 | i | -9% | -1.0% | i
COC(=O)C1=C(C)N(Cc2ccccc2)[C@]23O[C@](C(=O)OC)(C(=O)N2C1c1ccccc1)C(C(=O)OC)C3C(=O)OC (some centres undefined)
 : x | x | -2%&10%[11.4 µM] | 2.1%&0.8%[11.5 µM] | x
CC1(C)CC(=O)C=C(NCc2ccco2)C1
 : 1.4e-08 | i | 3% | 0.6% | i
Cc1ccc2c(c1)N(CCC(=O)NCc1ccccn1)C(=O)CO2
 : 1e-09 | i | -2% | -0.6% | i
CC(=O)Nc1nc2c(ncn2COCCOC(C)=O)c(=O)[nH]1
 : 1e-09 | i | u | -1.3% | i
CCCCOc1ccccc1Cn1c(=O)oc2ccc(C)cc21
 : 1e-09 | i | u | 1.6% | i

Screens as filed in PubChem.
